Source: PubChem (Broad Institute)
A1 apoptosis 2 = A1 inhibition read as caspase activation; AID 2465; 24,000 tested, under 10 active; caspase activation, % (test concentration not listed); MEF A1-2A-BIM cells, caspase-Glo luminescence, 3 h; percent of clofoctol response, DMSO zero; in the data active = caspase activation above about 5.9%;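 also: wells of about 30 µL received 50 nL stock; the first replicate is given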
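system = A1-2A-BIM-expressing MEF cells | quantity = 2500 MEF cells/well | dosing = 50 nL compound per well, pinned | schedule = overnight cell settling, then 3 h compound exposure, 37 °C | signal = luminescence from DEVD-luciferin Caspase-Glo reagent, 1:1 in 50 mM HEPES, 1 h RT | read-out = Caspase-3/7 activation, seen as rise in luminescence signal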
Active calls of the source: *. Only part of the results is shown (hit frequency here may not be typical).

SMILES	A1 apoptosis 2
Cc1ccc(S(=O)(=O)N(C)C[C@H]2Oc3c(NC(=O)CCCCCC(=O)Nc4ccccc4N)cccc3C(=O)N([C@@H](C)CO)C[C@@H]2C)cc1	0.7
C[C@H]1CCCCO[C@@H](CN(C)C(=O)NC2CCCCC2)[C@@H](C)CN([C@@H](C)CO)C(=O)c2cc(NC(=O)CCC(F)(F)F)ccc2O1	-1.0
CCCN(C)C[C@@H]1OCCCC[C@@H](C)Oc2ccc(NS(=O)(=O)c3ccccc3)cc2C(=O)N([C@@H](C)CO)C[C@@H]1C	-2.2
C[C@@H]1CN([C@@H](C)CO)C(=O)Cc2cc(NS(C)(=O)=O)ccc2O[C@H]1CN(C)Cc1ccccc1	0.4
COc1ccc(NC(=O)N(C)C[C@@H]2Oc3c(NS(=O)(=O)c4cn(C)cn4)cccc3C(=O)N([C@@H](C)CO)C[C@H]2C)cc1	0.6
COc1ccc(S(=O)(=O)Nc2ccc3c(c2)C(=O)N([C@H](C)CO)C[C@@H](C)[C@@H](CN(C)Cc2ccc(C(F)(F)F)cc2)OCCCC[C@H](C)O3)cc1	-0.9
C[C@H]1CN([C@@H](C)CO)C(=O)c2cccc(NC(=O)CCCCCC(=O)Nc3ccccc3N)c2O[C@H]1CN(C)C(=O)Nc1ccc(C(F)(F)F)cc1	-0.3
C[C@H](CO)N1C[C@H](C)[C@H](CN(C)S(=O)(=O)c2ccc(-c3ccccc3)cc2)OCc2cn(nn2)CCCC1=O	0.8
C[C@H](CO)N1C[C@H](C)[C@@H](CN(C)C(=O)NC2CCCCC2)Oc2ccc(NC(=O)Nc3ccc(C(F)(F)F)cc3)cc2CC1=O	-0.8
C[C@@H]1CN([C@H](C)CO)C(=O)Cc2cc(NS(=O)(=O)c3cn(C)cn3)ccc2O[C@H]1CN(C)CC1CCCCC1	1.6
C[C@@H]1CCCCO[C@@H](CN(C)C(=O)CCC(F)(F)F)[C@@H](C)CN([C@@H](C)CO)C(=O)c2cc(NC(=O)Cc3ccccc3)ccc2O1	-0.8
COc1ccc(S(=O)(=O)Nc2ccc3c(c2)CC(=O)N([C@@H](C)CO)C[C@@H](C)[C@@H](CN(C)Cc2ccncc2)O3)cc1	0.5
C[C@H]1CN([C@@H](C)CO)C(=O)Cc2cc(NC(=O)c3ccncc3)ccc2O[C@H]1CN(C)C(=O)Nc1ccc(F)cc1	-0.3
C[C@H](CO)N1C[C@H](C)[C@@H](CN(C)C(=O)c2ccncc2)OCCCC[C@H](C)Oc2ccc(NC(=O)NC3CCCCC3)cc2C1=O	1.1
O=C(c1ccccc1)N1Cc2ccccc2C[C@@]2(N=C(c3ccc(OCCCO)cc3)O[C@H]2c2ccccc2)C1=O	0.4
C[C@@H]1CCCCO[C@H](CN(C)C(=O)CCCN(C)C)[C@H](C)CN([C@@H](C)CO)C(=O)c2cc(NS(=O)(=O)c3ccc(F)cc3)ccc2O1	0.3
Cc1ccc(S(=O)(=O)Nc2ccc3c(c2)CC(=O)N([C@H](C)CO)C[C@H](C)[C@H](CN(C)Cc2ccc(C(=O)O)cc2)O3)cc1	0.7
CC(C)CNC(=O)[C@@]1(C)c2ccccc2C(=O)N(Cc2ccccc2)[C@H]1c1ccc(CO)cc1	0.6
COc1ccc(CN(C)C[C@@H]2OCCCC[C@@H](C)Oc3ccc(NC(=O)Nc4ccccc4)cc3C(=O)N([C@@H](C)CO)C[C@@H]2C)cc1	0.9
CC(C)NC(=O)Nc1ccc2c(c1)C(=O)N([C@H](C)CO)C[C@H](C)[C@H](CN(C)C(=O)Nc1ccccc1)OCCCC[C@@H](C)O2	-0.3
C[C@@H]1CN([C@@H](C)CO)C(=O)c2cc(NC(=O)Cn3cnnn3)ccc2O[C@@H]1CN(C)Cc1ccncc1	1.9
C[C@@H]1CN([C@H](C)CO)C(=O)Cc2cc(NS(=O)(=O)c3cccs3)ccc2O[C@@H]1CN(C)Cc1ccc(C(F)(F)F)cc1	-0.8
COc1ccc(S(=O)(=O)N(C)C[C@@H]2Oc3ccc(NC(=O)Nc4ccc(C(F)(F)F)cc4)cc3CC(=O)N([C@@H](C)CO)C[C@H]2C)cc1	0.0
Cc1noc(C)c1NC(=O)Nc1ccc2c(c1)CC(=O)N([C@H](C)CO)C[C@H](C)[C@H](CN(C)C(=O)Nc1ccc(C(F)(F)F)cc1)O2	-0.6
Cc1noc(C)c1NC(=O)N(C)C[C@H]1Oc2ccc(NC(=O)NC3CCCCC3)cc2CC(=O)N([C@H](C)CO)C[C@@H]1C	0.5

Already shown: entries from further up.
SMILES	A1 apoptosis 2
Cc1ccc(S(=O)(=O)Nc2ccc3c(c2)CC(=O)N([C@H](C)CO)C[C@H](C)[C@H](CN(C)Cc2ccc(C(=O)O)cc2)O3)cc1	0.7
CC(C)CNC(=O)[C@@]1(C)c2ccccc2C(=O)N(Cc2ccccc2)[C@H]1c1ccc(CO)cc1	0.6
COc1ccc(CN(C)C[C@@H]2OCCCC[C@@H](C)Oc3ccc(NC(=O)Nc4ccccc4)cc3C(=O)N([C@@H](C)CO)C[C@@H]2C)cc1	0.9
CC(C)NC(=O)Nc1ccc2c(c1)C(=O)N([C@H](C)CO)C[C@H](C)[C@H](CN(C)C(=O)Nc1ccccc1)OCCCC[C@@H](C)O2	-0.3
C[C@@H]1CN([C@@H](C)CO)C(=O)c2cc(NC(=O)Cn3cnnn3)ccc2O[C@@H]1CN(C)Cc1ccncc1	1.9
C[C@@H]1CN([C@H](C)CO)C(=O)Cc2cc(NS(=O)(=O)c3cccs3)ccc2O[C@@H]1CN(C)Cc1ccc(C(F)(F)F)cc1	-0.8
COc1ccc(S(=O)(=O)N(C)C[C@@H]2Oc3ccc(NC(=O)Nc4ccc(C(F)(F)F)cc4)cc3CC(=O)N([C@@H](C)CO)C[C@H]2C)cc1	0.0
Cc1noc(C)c1NC(=O)Nc1ccc2c(c1)CC(=O)N([C@H](C)CO)C[C@H](C)[C@H](CN(C)C(=O)Nc1ccc(C(F)(F)F)cc1)O2	-0.6
Cc1noc(C)c1NC(=O)N(C)C[C@H]1Oc2ccc(NC(=O)NC3CCCCC3)cc2CC(=O)N([C@H](C)CO)C[C@@H]1C	0.5

Remaining list, next part.
SMILES	A1 apoptosis 2
COC(=O)CCCCCCC(=O)N/N=C/c1ccc(O)cc1Br	-1.4
C[C@H](CO)N1C[C@H](C)[C@@H](CN(C)C(=O)Nc2ccc3c(c2)OCO3)Oc2ccc(NC(=O)C3CC3)cc2CC1=O	0.5
CNC[C@H]1Oc2c(NC(=O)C3CCCCC3)cccc2C(=O)N([C@@H](C)CO)C[C@@H]1C	-1.2
Cc1noc(C)c1S(=O)(=O)N(C)C[C@@H]1Oc2ccc(NS(C)(=O)=O)cc2CC(=O)N([C@H](C)CO)C[C@@H]1C	0.3
C[C@@H]1CCCCO[C@@H](CN(C)S(=O)(=O)c2ccccc2)[C@H](C)CN([C@H](C)CO)C(=O)c2cc(NC(=O)Nc3ccc4c(c3)OCO4)ccc2O1	-1.2
CC(C)NC(=O)N(C)C[C@H]1Oc2c(NS(=O)(=O)c3cn(C)cn3)cccc2C(=O)N([C@H](C)CO)C[C@H]1C	0.3
COc1cccc(-c2cnc3c(c2)C(=O)N([C@H](C)CO)C[C@H](C)[C@H](CN(C)C(=O)Nc2ccccc2)O3)c1	0.6
Cc1ccc(S(=O)(=O)N(C)C[C@@H]2OCCCC[C@@H](C)Oc3ccc(NS(=O)(=O)c4c(C)noc4C)cc3C(=O)N([C@H](C)CO)C[C@H]2C)cc1	-1.1
C[C@@H]1CN([C@H](C)CO)C(=O)c2cc(NC(=O)CCC(F)(F)F)ccc2O[C@@H](C)CCCCO[C@H]1CN(C)C(=O)c1ccccc1	-0.6
CNC[C@@H]1Oc2ccc(NC(=O)C3CC3)cc2CC(=O)N([C@@H](C)CO)C[C@H]1C	1.7
COc1ccc(S(=O)(=O)N(C)C[C@H]2OCCCC[C@H](C)Oc3ccc(NS(=O)(=O)c4c(C)noc4C)cc3C(=O)N([C@@H](C)CO)C[C@H]2C)cc1	-0.5
Cc1noc(C)c1S(=O)(=O)Nc1ccc2c(c1)C(=O)N([C@H](C)CO)C[C@@H](C)[C@@H](CN(C)C(=O)c1ccccc1)OCCCC[C@H](C)O2	0.5
CN1C(=O)N[C@@H]2c3ccccc3O[C@@]1(CO)[C@@H]2COC(=O)c1ccccc1	0.8
C[C@@H]1CCCCO[C@@H](CN(C)S(=O)(=O)c2cn(C)cn2)[C@H](C)CN([C@@H](C)CO)C(=O)c2cc(NS(C)(=O)=O)ccc2O1	-0.3
COc1ccc(NC(=O)N(C)C[C@H]2Oc3ccc(NS(=O)(=O)c4ccc(OC)cc4)cc3C(=O)N([C@@H](C)CO)C[C@H]2C)cc1	0.3
COc1ccc(S(=O)(=O)N(C)C[C@@H]2Oc3c(NS(=O)(=O)c4ccccc4)cccc3C(=O)N([C@@H](C)CO)C[C@H]2C)cc1	-0.9
C[C@@H]1CN([C@@H](C)CO)C(=O)Cc2cc(NS(=O)(=O)c3cccs3)ccc2O[C@@H]1CN(C)S(=O)(=O)c1cccs1	-0.6
C[C@@H]1CN([C@H](C)CO)C(=O)c2cc(NC(=O)Cc3cn(C)c4ccccc34)ccc2O[C@@H]1CN(C)C(=O)Nc1ccccc1	0.7
C[C@H]1CN([C@@H](C)CO)C(=O)c2cccc(NC(=O)c3ccc(-c4nccs4)cc3)c2O[C@@H]1CN(C)S(=O)(=O)c1cccs1	-1.1
Cc1noc(C)c1S(=O)(=O)Nc1ccc2c(c1)C(=O)N([C@H](C)CO)C[C@H](C)[C@@H](CN(C)Cc1ccccc1)OCCCC[C@@H](C)O2	2.1
C[C@H](CO)N1C[C@H](C)[C@@H](CN(C)C(=O)Nc2ccc(F)cc2)Oc2c(NC(=O)Nc3cccc4ccccc34)cccc2C1=O	-1.5
COc1ccc(S(=O)(=O)Nc2ccc3c(c2)CC(=O)N([C@@H](C)CO)C[C@H](C)[C@H](CN(C)S(=O)(=O)c2ccc(C)cc2)O3)cc1	0.6
CNC[C@@H]1OCCCC[C@H](C)Oc2ccc(NC(=O)Nc3ccc(OC)cc3)cc2C(=O)N([C@@H](C)CO)C[C@H]1C	0.2
Cc1ccc(S(=O)(=O)Nc2ccc3c(c2)C(=O)N([C@H](C)CO)C[C@H](C)[C@H](CN(C)C(=O)Nc2ccc(F)cc2)OCCCC[C@@H](C)O3)cc1	-0.3
C[C@H]1CN([C@@H](C)CO)C(=O)c2cccc(NS(=O)(=O)c3cccs3)c2O[C@@H]1CN(C)C(=O)NC1CCCCC1	1.3
SMILES	A1 apoptosis 2
COc1ccc(S(=O)(=O)Nc2cccc3c2O[C@H](CN(C)S(=O)(=O)c2cn(C)cn2)[C@H](C)CN([C@H](C)CO)C3=O)cc1	-0.2
C[C@H]1CN([C@@H](C)CO)C(=O)c2cc(N(C)C)ccc2O[C@H]1CN(C)C(=O)NC1CCCCC1	1.3
O=C(CCCCCCC(=O)Nc1ccccc1O)N/N=C/c1ccc(I)cc1	0.3
C[C@@H]1CN([C@H](C)CO)C(=O)c2cccc(NC(=O)CCCCCC(=O)Nc3ccccc3N)c2O[C@@H]1CN(C)Cc1ccc(Oc2ccccc2)cc1	1.0
C[C@@H]1CN([C@@H](C)CO)C(=O)c2cc(NC(=O)NC3CCCCC3)ccc2O[C@H]1CN(C)Cc1ccc(Cl)c(Cl)c1	0.1
COc1ccc(S(=O)(=O)N(C)C[C@@H]2Oc3c(NC(=O)c4cc(C)nn4C)cccc3C(=O)N([C@@H](C)CO)C[C@H]2C)cc1	1.0
C[C@H](CO)N1C[C@H](C)[C@H](CN(C)S(=O)(=O)c2ccc(F)cc2)Oc2ccc(NC(=O)Nc3ccc(C(F)(F)F)cc3)cc2C1=O	-1.6
C[C@H](CO)N1C[C@H](C)[C@@H](CN(C)S(=O)(=O)c2cccs2)Oc2ccc(NC(=O)Nc3ccc(F)cc3)cc2C1=O	1.2
COc1ccc(NC(=O)Nc2cccc3c2O[C@H](CN(C)Cc2ccc(-c4ccccc4)cc2)[C@@H](C)CN([C@@H](C)CO)C3=O)cc1	0.6
COc1ccc(CN(C)C[C@@H]2Oc3ccc(NC(=O)Nc4ccccc4)cc3CC(=O)N([C@@H](C)CO)C[C@@H]2C)cc1	1.4
C[C@@H]1CN([C@H](C)CO)C(=O)c2cc(NC(=O)Cc3ccccc3)ccc2O[C@H]1CN(C)C	0.2
C[C@H]1CN([C@@H](C)CO)C(=O)c2cc(NC(=O)C3CC3)ccc2O[C@H]1CN(C)CC1CCCCC1	0.3
C[C@@H]1CCCCO[C@H](CN(C)S(=O)(=O)c2ccc(Cl)cc2)[C@@H](C)CN([C@H](C)CO)C(=O)c2cc(NC(=O)Cc3ccccc3)ccc2O1	-0.8
CNC[C@H]1Oc2c(NC(=O)c3cnccn3)cccc2C(=O)N([C@H](C)CO)C[C@H]1C	0.0
COc1ccc(S(=O)(=O)Nc2ccc3c(c2)CC(=O)N([C@H](C)CO)C[C@H](C)[C@@H](CN(C)Cc2ccc(C(F)(F)F)cc2)O3)cc1	-2.1
C[C@@H]1CCCCO[C@H](CN(C)Cc2ccncc2)[C@@H](C)CN([C@@H](C)CO)C(=O)c2cc(NC(=O)Nc3cccc4ccccc34)ccc2O1	0.3
C[C@@H]1CN([C@@H](C)CO)C(=O)Cc2cc(NC(=O)Cc3cn(C)c4ccccc34)ccc2O[C@@H]1CN(C)C(=O)Nc1ccc(C(F)(F)F)cc1	2.6
CNC[C@H]1OCCCC[C@H](C)Oc2ccc(NS(C)(=O)=O)cc2C(=O)N([C@H](C)CO)C[C@H]1C	1.0
O=C(NCc1ccccc1)[C@]1(CCS(=O)(=O)c2ccccc2)N=C(c2ccc(OCCCO)cc2)O[C@@H]1c1ccccc1	-0.7
C[C@H]1CN([C@@H](C)CO)C(=O)c2cc(NS(=O)(=O)c3ccc(F)cc3)ccc2O[C@@H]1CN(C)S(=O)(=O)c1ccccc1	-0.4
C[C@@H]1CN([C@H](C)CO)C(=O)CCCn2nncc2CO[C@@H]1CN(C)Cc1cccc(C(F)(F)F)c1	-0.9
COc1ccc(S(=O)(=O)Nc2ccc3c(c2)CC(=O)N([C@@H](C)CO)C[C@H](C)[C@@H](CN(C)Cc2ccncc2)O3)cc1	-0.1
